# KCNQ2 inh: KCNQ2 channel blockers in CHO-K1 cells – cell-based, FluxOR thallium flux, B-score, primary screen (AID 2156) | 20 min; stronger effect = lower value; only compounds with negative scores are shown here; some inactives read as strong as hits | O88943 | hit rate 1.1% among 310,000 | B-score at 10 µM;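 active = fluorescence ratio B-score at most minus 3 library SDs, with starting brightness B-score within 2 library SDs, cut at about -5.5 in these data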
# Target sequence (O88943 whole entry, looked up): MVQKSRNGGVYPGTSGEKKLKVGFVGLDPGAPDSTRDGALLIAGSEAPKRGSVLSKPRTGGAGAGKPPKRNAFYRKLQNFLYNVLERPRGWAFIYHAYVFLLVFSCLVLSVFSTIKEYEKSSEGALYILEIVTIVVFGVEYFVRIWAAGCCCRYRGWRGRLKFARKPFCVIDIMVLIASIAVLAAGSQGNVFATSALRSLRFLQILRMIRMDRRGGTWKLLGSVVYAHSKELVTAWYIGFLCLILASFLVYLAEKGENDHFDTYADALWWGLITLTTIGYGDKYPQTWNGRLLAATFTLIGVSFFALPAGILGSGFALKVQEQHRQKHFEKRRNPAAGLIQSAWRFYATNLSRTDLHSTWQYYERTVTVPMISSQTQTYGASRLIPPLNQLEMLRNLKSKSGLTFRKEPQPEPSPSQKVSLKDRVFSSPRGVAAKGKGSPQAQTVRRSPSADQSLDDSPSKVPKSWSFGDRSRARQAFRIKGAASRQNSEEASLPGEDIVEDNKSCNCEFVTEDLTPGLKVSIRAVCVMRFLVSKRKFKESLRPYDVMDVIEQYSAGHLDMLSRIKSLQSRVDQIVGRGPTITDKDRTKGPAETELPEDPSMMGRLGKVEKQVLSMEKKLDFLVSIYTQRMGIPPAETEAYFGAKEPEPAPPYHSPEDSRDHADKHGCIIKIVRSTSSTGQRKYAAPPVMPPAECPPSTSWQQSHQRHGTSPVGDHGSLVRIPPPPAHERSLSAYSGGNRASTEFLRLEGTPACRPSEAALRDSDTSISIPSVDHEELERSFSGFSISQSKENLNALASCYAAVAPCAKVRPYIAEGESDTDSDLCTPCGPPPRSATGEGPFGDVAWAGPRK
# KCNQ2 inh baseline: second read-out of KCNQ2 inh, no call of its own (marks repeat the call); B-score; measured here: initial fluorescence intensity artifact check;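 brightness before thallium and not channel activity; 0 = typical well and far values either way flag optical interference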
# Starred values were filed as active, the others as inactive; i = inactive.
# Values in the order – KCNQ2 inh, KCNQ2 inh baseline
CCN(CC)CC(=O)Nc1sc2c(c1C(=O)c1ccccc1OC)CCC2
  i, 0.32
COc1ccc(Cc2nnc(NC(=O)c3ccc(F)cc3)s2)cc1OC
  i, 0.42
CCn1c(=O)c(C(=O)NNS(=O)(=O)c2ccc(NC(=O)OC)cc2)c(O)c2ccccc21
  i, -0.07
CSc1nnc(CCNS(=O)(=O)c2ccccc2Br)n1C
  i, 2.9
CCCCCn1c(CN2CCN(C(=O)c3ccco3)CC2)nc2c1c(=O)n(C)c(=O)n2C
  i, -0.11
CN(C)CCCN(C(=O)c1cc(Cl)sc1Cl)c1nc2cc3c(cc2s1)OCO3
  i, 2.5
CCN(C(=O)Cn1c(=O)oc2ccccc21)C1CCS(=O)(=O)C1 (stereo not drawn)
  i, -0.16
N/C(=N\OC(=O)c1cccc(Cl)c1)c1ccccn1
  i, -0.12
CCN(CC)S(=O)(=O)c1ccc2c(c1)CC(C(=O)N1CCCC1)N2C(C)=O (stereo not drawn)
  i, -1
CC(/C=C/C(=O)c1ccc(C)cc1)=C\c1ccccc1
  i, 0.52
COc1cc(C(=O)NCCN2C(=O)S/C(=C\c3ccc(F)cc3)C2=O)ccc1OCC(=O)N1CCOCC1
  i, 0.24
Cc1ccsc1/C=N/N1CCN(C2c3ccccc3-c3ccccc32)CC1
  i, 0.41
Cc1ccc(CNC(=O)C2COc3ccccc3O2)cc1 (stereo not drawn)
  i, 1.1
Nc1nc(SCC(=O)c2cccs2)n[nH]1
  i, -0.22
Cc1[nH]n2c(=O)c3c(nc2c1-c1cccc2ccccc12)CCC3
  i, 0.77
Cc1ccc(SCCSc2ncccn2)cc1
  i, -0.03
COc1cc(OC)c(NC(=S)Nc2cc(Cl)cc(Cl)c2)cc1Cl
  i, 0.4
Cc1cc(C)n2nc(SCC(=O)c3cc(C)n(-c4cc(C)on4)c3C)nc2n1
  i, -0.49
CC(C)c1ccccc1-n1c(SCc2cc(=O)oc3ccc4ccccc4c23)nnc1-c1cccnc1
  i, 2
C=C(C)C1CC=C(C)/C(=N/NC(=O)c2ccoc2C)C1 (stereo not drawn)
  i, 0.78
O=C1c2ccccc2C(=O)c2c1cccc2N1CCN(Cc2ccccc2)CC1
  i, 1.2
Cc1ccc(OCCn2ccnc2)c([N+](=O)[O-])c1
  i, -1.6
COc1ccccc1N1CCN(CCNC(=O)Nc2cccc(C)c2C)CC1
  i, 0.46
O/N=C1\CCC\C1=C/c1ccco1
  i, 0.13
Cc1nc(-c2ccc([N+](=O)[O-])cc2)c(-c2ccccc2)o1
  i, -0.06
CCOc1ccccc1OCC(=O)Nc1cccc(S(=O)(=O)N2CCCCCC2)c1
  i, -1
O=C(c1ccco1)N1CCN(C(c2cccs2)c2sc3ncnn3c2O)CC1 (stereo not drawn)
  i, 0.11
O=C(Cc1ccc(Cl)cc1Cl)OCC(=O)N1CCN(C(=O)c2ccco2)CC1
  i, 1.2
O=c1cc(-c2c(F)c(F)c(F)c(F)c2F)oc2c(F)c(F)c(F)c(F)c12
  i, -2.8
COc1ccc(C(=O)c2no[n+]([O-])c2C(=O)c2ccc(OC)cc2)cc1
  i, 3.3
COc1cccc(CNC(=O)COc2cccc3c2OC(C)(C)C3)c1
  i, 0.93
CCCN(CC1CC1)C(=S)Nc1ccc(Oc2ccccc2)cc1
  i, 0.06
CCCCCCn1c(NCC)nc2c1c(=O)n(C)c(=O)n2C
  i, -2.5
Cc1cnc(NC(=O)Cc2ccccc2F)s1
  i, 0.02
COc1ccc(CNC(=O)/C=C/c2ccc(OCCCF)cc2)cc1OC
  i, 0.9
CSc1nc(-c2ccccc2F)c(C#N)c(=O)n1C
  i, -1.1
c1cc(-n2cnnn2)ccc1NC1=NCCC1
  i, -1.3
NC(=O)CC(NC(=O)Cc1cccc2ccccc12)c1ccc(N2CCC(Cc3ccccc3)CC2)c([N+](=O)[O-])c1 (stereo not drawn)
  i, -1.6
CC(C)OC(=O)c1ccc(N2CCN(c3ccccc3F)CC2)nc1
  i, 0.29
O=C(N/N=C/c1ccc(O)cc1O)C(=O)N/N=C/c1ccc(O)cc1O
  i, 1.9
O=C(c1cccc(Cl)c1)C1CCCN(C(=O)c2ccc3c(c2)OCO3)C1 (stereo not drawn)
  i, -1.5
CC(C)Oc1cccc(C(=O)N/N=C/c2coc3ccccc3c2=O)c1
  i, -0.01
CC(NC(=O)c1ccccc1F)C12CC3CC(CC(C3)C1)C2 (stereo not drawn)
  i, 1.7
O=C(CSc1nc2scc(-c3ccccc3)c2c(=O)[nH]1)NC1CCCCC1
  i, 1.1
Cc1cc(C)n(-c2nc(-c3cccc(Cl)c3)cs2)n1
  i, -0.69
CC(C)(C)/C=N/NC(=O)C1CC1
  i, -1.1
O=C(CCC(=O)Nc1ccc(Br)cc1)N/N=C/c1ccc(F)cc1
  i, 2.2
COc1ccc(-c2noc(CSc3nc4sc(C)c(C)c4c(=O)n3-c3ccccc3)n2)cc1
  i, -0.02
COc1cccc(NC(=S)N(Cc2ccco2)C(C)c2ccco2)c1 (stereo not drawn)
  i, -0.1
Cc1cccc(C(=O)Nc2ccccc2C(=O)Nc2ccc(C(=O)O)cc2)c1
  i, 2.2
CCCCNC(=S)N/N=C/c1sccc1C
  i, 0.25
CCOc1ccc(CCNC(=O)CSc2cc(=O)n(CC)c3ccccc23)cc1OCC
  i, 2
O=C(COc1ccc(F)cc1)N1CCCc2ccccc21
  i, 0.46
O=C(CN(CCc1ccccc1)C(=O)CN1C(=O)COc2ccccc21)NCc1ccco1
  i, -0.82
Cc1ccc2cccc(OCc3cccc([N+](=O)[O-])c3)c2n1
  i, 1.7
O=C(Nc1ccc2ncccc2c1)c1ccccc1Cl
  i, -0.01
COc1ccc(CN2CCc3c([nH]c4ccccc34)C2)cc1Br
  i, 0.31
CCN1C(=O)CC(Sc2ccccc2C(=O)O)C1=O (stereo not drawn)
  i, -1
Cc1cc(C(=O)N/N=C/c2ccc[nH]2)no1
  i, -0.05
O=C(NCCOc1ccccc1F)C1CCC(=O)N(CC2CCCCC2)C1 (stereo not drawn)
  i, -0.01

# Two entries picked at random from those above:
# Values in the order – KCNQ2 inh, KCNQ2 inh baseline
O=C(NCCOc1ccccc1F)C1CCC(=O)N(CC2CCCCC2)C1 (stereo not drawn)
  i, -0.01
Cc1cc(C(=O)N/N=C/c2ccc[nH]2)no1
  i, -0.05

# (listing goes on)
# Values in the order – KCNQ2 inh, KCNQ2 inh baseline
Cc1cc(C)c(NC(=O)C(=O)NCc2ccco2)c(C)c1
  i, 0.56
COC(=O)COc1ccc2cccc(-n3cnnn3)c2c1
  i, -1.8
CCc1ccccc1NS(=O)(=O)c1ccc(OC)c2ncccc12
  i, 2.1
COc1ccc2nc(NC(=O)CSc3nnc4n3C(C)(C)Cc3ccccc3-4)sc2c1
  i, -1.8
CCC1(C)Cc2ccccc2-c2nc(NCCO)n(-c3ccccc3)c(=O)c21 (stereo not drawn)
  i, -0.12
Cc1sc2nc(-c3cccnc3)nc(Cl)c2c1-c1ccccc1
  i, 0.74
CCCN(CCC)C(=O)c1cc2c(=O)[nH]c3ccc(C)cc3c2s1
  i, 0.43
CCOC(=O)C1=C(CSc2nccn2C)NC(=O)NC1c1ccc(OC)cc1 (stereo not drawn)
  i, -0.08
COc1ccccc1-c1cc(C(=O)N/N=C/c2sccc2C)c2ccccc2n1
  i, -1.3
O=C(NCc1ccco1)c1cc2nc(-c3ccc4c(c3)OCO4)cc(C(F)(F)F)n2n1
  -8.2*, -2.5*
C=C(Br)Cn1c(CC)nc2ccccc21
  i, -1.6
O=C(CCC1CCCCC1)N1CCN(Cc2ccc3c(c2)OCO3)CC1
  i, 1.2
CCc1nc(C)cn1S(=O)(=O)c1ccc([N+](=O)[O-])cc1
  i, 1.1
CSc1nc(-c2ccc(Cl)cc2)nn1S(=O)(=O)c1ccccc1
  i, 1
Cc1ccc(N2C(=O)c3ccc(C(=O)N4CCN(c5ccccc5F)CC4)cc3C2=O)cc1
  i, -0.43

# Structural class, the compounds so far containing a nitro group on carbon.
# Values in the order – KCNQ2 inh, KCNQ2 inh baseline
Cc1ccc(OCCn2ccnc2)c([N+](=O)[O-])c1
  i, -1.6
Cc1nc(-c2ccc([N+](=O)[O-])cc2)c(-c2ccccc2)o1
  i, -0.06
NC(=O)CC(NC(=O)Cc1cccc2ccccc12)c1ccc(N2CCC(Cc3ccccc3)CC2)c([N+](=O)[O-])c1 (stereo not drawn)
  i, -1.6
Cc1ccc2cccc(OCc3cccc([N+](=O)[O-])c3)c2n1
  i, 1.7
CCc1nc(C)cn1S(=O)(=O)c1ccc([N+](=O)[O-])cc1
  i, 1.1

# Remaining list, next part.
# Values in the order – KCNQ2 inh, KCNQ2 inh baseline
COc1cc(-c2cc(OC)c3c(C)oc(C)c3c(=O)c2)ccc1O
  i, 0.23
Cc1ccc[n+](/C(C(=S)NCc2ccco2)=C(/[O-])c2ccccc2Cl)c1
  i, -0.57
COc1ccc(NCc2nnc(SCC(=O)Nc3cc(C)cc(C)c3)o2)cc1
  i, 0.71
N#C/C(=N\Nc1cccc2ccccc12)c1nnc2n1CCCCC2
  i, -0.62
CC(=O)NC(CSC(CC(=O)c1ccco1)c1ccc(C)cc1)C(=O)O (stereo not drawn)
  i, 1.6
CC(C)N1CC(C(=O)Nc2ccc(F)c(Cl)c2)CC1=O (stereo not drawn)
  i, -0.45
Cc1ccc2c(c1)c1c(n2CC(O)CN2CCOCC2)CCCC1 (stereo not drawn)
  i, -0.3
O=C(CCCC(=O)N(CC(=O)NC1CCCC1)C1CCCC1)Nc1ccccn1
  i, -0.77
OCCNc1nc(Nc2ccc(O)cc2)nc2ccccc12
  i, 0.29
CC1CN(S(=O)(=O)c2ccc(C(=O)Nc3nc(-c4cc5ccccc5o4)cs3)cc2)CC(C)O1 (stereo not drawn)
  i, 1.2
CCCn1c(N2CCN(C(=O)NCc3ccccc3)CC2)nc2ccccc21
  i, -1.3
COC(=O)N/N=C/c1cc(Cl)cc(Cl)c1OCc1ccc(F)cc1
  i, 0.22
CC(=O)Nc1ccc(NC(=S)NC(=O)c2oc3ccccc3c2C)cc1
  i, 0.72
O=C(CSc1nnc(-c2ccc3c(c2)OCCO3)o1)N1CCCC1
  i, 1.2
CCCC(=O)Nc1sc2c(c1C#N)CCCCC2
  i, 1
COc1ccc(CCN(C)C(=O)C23CC4CC(CC(Cl)(C4)C2)C3)cc1OC
  i, -0.11
CNc1ccc(/C=C/C(=O)c2ccc3c(c2)OCCO3)cc1[N+](=O)[O-]
  i, 2.5
O=C(CC(C(=O)O)c1c(F)cccc1Cl)c1ccc(Cl)cc1 (stereo not drawn)
  i, 0.06
N#Cc1c(-c2ccccc2)cc(-c2ccccc2)nc1SCc1nnc(-c2ccccc2)o1
  i, -1.1
Cn1c(=O)c2c(nc(CN3CCN(C(=O)c4ccco4)CC3)n2CC(N)=O)n(C)c1=O
  i, -1.4
CCCNC(=O)COC(=O)c1cccnc1Nc1ccccc1F
  i, -0.58
COc1ccc(C2CC(=O)N(CC(=O)NCC3CCCO3)c3ccccc3S2)cc1 (stereo not drawn)
  i, -1.5
O=C(NC12CC3CC(CC(C3)C1)C2)C1CCCN1C(=O)Nc1ccccc1 (stereo not drawn)
  i, -2.5
O=C(NCc1ccco1)c1nn2c(C(F)(F)F)cc(-c3cccs3)nc2c1Br
  -6.8*, -1.8*
[O-][N+]1=c2ccc(Nc3ccccc3)cc2=NC12CCCCC2
  i, 0.07
COc1ccc(NC2=CC(=O)CC(c3ccccc3)C2)cc1 (stereo not drawn)
  i, 2
O=C(N/N=C\c1ccccc1)c1cccc(C(=O)N/N=C\c2ccccc2)n1
  i, -0.25
O=C1CCN(CCc2ccccc2)CCN1CCSc1ccccc1
  i, -0.87
O=C1/C(=C/c2cccc(F)c2)CSc2sccc21
  i, -0.02
Cc1cc(=O)oc2c3c(cc(OCC(=O)NCCCn4ccnc4)c12)OC(C)(C)CC3
  i, 1.9
CCCN(CC(=O)Nc1ccccc1C)C(=O)c1ccc(C)c(S(=O)(=O)N2CCCCC2)c1
  i, -0.01
CC(C)n1c(N2CCN(CC(=O)Nc3ccc4c(c3)OCCO4)CC2)nc2ccccc21
  i, 1.2
CCc1noc(C)c1C(=O)N1CCN(S(=O)(=O)c2ccc(C(C)=O)cc2)CC1
  i, -0.05
Cc1cnc([N+](=O)[O-])n1CCOC(=O)NC(=O)c1ccccc1
  i, 0.5
CCOC(=O)CCC(=O)N1CCOCCOCCOCC1
  i, 1.9
COCn1cnc(-c2ccccc2)c1-c1ccccc1
  i, 1.5
O=C(c1ccccc1)n1c(=S)nc2ccccn21
  i, -0.32
O=C(Nc1nc2c(F)cc(F)cc2s1)C1CC1
  i, 0.11
CN(Cc1ccccc1)C(=O)c1[nH]cnc1C(=O)NCC(=O)OCc1ccccc1
  i, -0.79
CCCC(=O)N(CCN(Cc1ccccc1)C(=O)CCC)Cc1ccccc1
  i, 0.4
CCn1c(=O)cc(SCC(=O)NCc2ccc3c(c2)OCO3)c2ccccc21
  i, -0.02
COC(=O)[C@H](Cc1ccccc1)NC(=O)N1CCN(c2ccccc2)CC1
  i, -1.9
CCc1nn(CC(=O)N2CCN(c3ccc(F)cc3)CC2)c(=O)c2cc3occc3n12
  i, 2.1
Cc1ccc(S(=O)(=O)N2CCN(C(=O)c3cc4c(C)nn(-c5ccccc5C)c4s3)CC2)cc1
  i, 1.5
COc1ccc(N(C(=O)C2CCCCC2)S(=O)(=O)c2cccc3cccnc23)cc1
  i, 9.2
O=C(C1=C[C@H](C2CCCCC2)C[C@H](OCCCCO)O1)N1CCN(Cc2ccccc2)CC1
  i, -1.4
Cc1ccc(CNC(=O)C(C)OC(=O)c2cccs2)cc1 (stereo not drawn)
  i, -0.64

# High-throughput results: PubChem, Johns Hopkins Ion Channel Center

# This is a subset; rates above refer to the full screens.
